# Compound activity deposited in PubChem by National Center for Advancing Translational Sciences (NCATS).
# D2 potentiator: potentiates the human D2 dopamine receptor allosterically | DiscoveRx D2 beta-arrestin cells, luminescence, 90 min; 100% = 57 uM dopamine signal | potentiation, % (no concentration beside the values) | 360,000 compounds, 0.23% hits; active = potentiation of 50% or more; inconclusive = 30% to 50%; inactive = 30% or less;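 further: compound concentration not given in the record; tested on top of an EC20 dose of dopamine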
# Target sequence (P14416 whole entry, looked up): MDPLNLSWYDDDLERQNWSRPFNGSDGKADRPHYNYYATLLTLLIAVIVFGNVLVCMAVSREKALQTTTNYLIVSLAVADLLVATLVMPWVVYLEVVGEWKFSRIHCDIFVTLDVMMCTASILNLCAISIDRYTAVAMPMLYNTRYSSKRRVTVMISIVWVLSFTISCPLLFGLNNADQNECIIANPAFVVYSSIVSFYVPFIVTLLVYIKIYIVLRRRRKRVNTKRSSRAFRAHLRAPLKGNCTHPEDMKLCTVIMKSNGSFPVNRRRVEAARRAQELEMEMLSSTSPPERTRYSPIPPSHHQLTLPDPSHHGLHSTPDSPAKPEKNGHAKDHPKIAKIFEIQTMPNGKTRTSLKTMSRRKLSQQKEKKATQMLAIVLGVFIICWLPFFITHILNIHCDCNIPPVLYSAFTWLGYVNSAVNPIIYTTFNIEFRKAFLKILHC
#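 PathHunter beta-arrestin assay in DiscoveRx D2 cells. Compounds were added with an EC20 of dopamine (50 nM final) for 90 min at 37 deg C. Luminescence was read 1 h after detection reagent, with 57 uM dopamine as the EC100 control.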
# PINK1 modulator: modulators of PINK1 expression; Potency, µM (titrated, usually from 76.6 µM), for the others: at the top dose activation (PINK1 increase), most hits filed as activators; 410,000 compounds, 0.2% hits; PINK1 immunofluorescence, high-content cytometry, 24 h; active = well fitted activation curve with a large enough effect; inconclusive = small, poorly fitted or top-dose-only effect; inactive = flat fitted curve, though single readings scatter; cell line not stated here;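 further: potency means the concentration at half of the fitted maximal effect; % of control where 0% means no effect; nearly all actives have a fitted effect of over 65% in size; a mitochondrial uncoupler was the plate control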
#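 Measures PINK1 amount and localization on or inside mitochondria by immunofluorescence. Stable cells get compounds at 5 concentrations for 24 hours before fixation and staining; CCCP controls included.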
# D2 ag: human D2 receptor agonism in beta-arrestin assay; 360,000 compounds, 0.084% hits; DiscoveRx PathHunter D2 beta-arrestin, luminescence, 90 min; 100% = 57 uM dopamine signal; P14416; activation, % (test concentration not listed); in the data active = activation above about 40%; inconclusive = about 15% to 40%; inactive = below about 15%; further: compound concentration not given in the record; the text of the record calls up to 30% inactive
#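 DiscoveRx PathHunter D2 beta-arrestin cells (2,100/well) attached overnight, then compound-stimulated 90 min at 37 C in HBSS/10 mM HEPES/0.1% Tween-20 buffer; beta-galactosidase complementation read by luminescence after 1 h at ambient temperature. Dopamine 57 uM final (EC100) as control.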
# TRPV1 potentiator: potentiators of human vanilloid receptor 1 (TRPV1); Q8NER1; TRPV1-expressing cells, Fluo-8 calcium influx, capsaicin EC20 potentiation; host cell line not named in the record; control for the full effect not named in the record; potentiation, % at 8.33 µM; 320,000 compounds, 0.02% hits; AID 540277; active means potentiation above 80%; inconclusive means 30% to 80%; inactive means below 30%; further: 0% is about no effect
#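 Cells expressing TRPV1 were dye-loaded with Fluo-8 and read kinetically: 10 s baseline, 3 min after compound (agonist portion), then 2 min after EC20 capsaicin (allosteric enhancer portion). Calcium-bound dye fluorescence at 480/520 nm.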
# Six1-Eya2 inh: blocks human Six1 binding to Eya2; activity change, % (no concentration beside the values); 360,000 compounds, 0.56% hits; AID 651725; Q15475+O00167; AlphaScreen GST-Six1/His-Eya2 binding, biochemical; stronger effect = lower value; control for the full effect not named in the record; in the data active = activity change below about -65%; inconclusive = about -30% to -65%; inactive = above about -30%; further: on the % scale 0 is the no-effect control and ±100 the full control effect
#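 AlphaScreen with GST-Six1 and His-Eya2 (5X mix: 250 nM and 500 nM), glutathione donor and nickel acceptor beads; buffer 50 mM Tris pH 8.0, 300 mM NaCl, 1 mM TCEP; 1 h at 37 C in the dark.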
# Sfp PPTase inh: inhibitors of Bacillus subtilis Sfp phosphopantetheinyl transferase; AID 1490; Biochemical Sfp PPTase activity, qHTS; 310,000 compounds, 3.5% hits; Potency, µM, inactives show max response, negative = inhibition, most hits filed as inhibitors; active means well fitted inhibition curve with a large enough effect; inconclusive means small, poorly fitted or top-dose-only effect, or another doubt; inactive means no such curve, though single readings can be large or run the other way;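 further: the enzyme is Sfp with the accession as filed and its product quenches rhodamine fluorescence; potency means the concentration at half of the fitted maximal effect; 0% = enzyme reaction without inhibitor and -100% = no enzyme wells; top concentration of the series not given in the record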
#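 Step 1, compound plus 15 nM Sfp-PPTase, 15 min, room temperature. Step 2, add rhodamine-CoA (5 uM) and BHQ-2-YbbR (12.5 uM). Step 3, read 525/598 nm fluorescence at 0 and 30 min.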
# CtBP-E1A inh: blocks the CtBP interaction with E1A | activity change, % (test concentration not listed) | AlphaScreen GST-E1A/His-CtBP binding, 1536-well; stronger effect = lower value; control for the full effect not named in the record | 340,000 compounds, 0.49% hits; in the data active means activity change below about -65%; inconclusive means about -30% to -65%; inactive means above about -30%; further: on the % scale 0 is the no-effect control and ±100 the full control effect
#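 Steps: dispense buffer (Tris pH 8.0, NaCl 300 mM, TCEP 1 mM, BSA, Tween 20); add 5X protein mix (GST-E1A, His-CtBP, 125 nM each); pin 23 nL compound; 2 h at 37 °C, dark; add 5X beads (50 ug/mL); 1 h; read.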
# * marks the source's active call; other numbers are inactive results; ? = inconclusive; . = no result given; & = joins results of further samples; [ ] = remark or other dose.
SMILES,D2 potentiator,PINK1 modulator,D2 ag,TRPV1 potentiator,Six1-Eya2 inh,Sfp PPTase inh,CtBP-E1A inh
CC(C)(C)c1ccc(CC(=O)N2CCC2(C)C(=O)Nc2ccc3[nH]ncc3c2)cc1 (stereo not drawn),-6,-0.1%,8.0,.,-10,.,-5
Cc1cccc(NC2(C(=O)O)CCCC2)c1,4,2.3%,1.1,.,-4,.,-1
CCC(=O)N1CCC1(C)C(=O)Nc1ccc(OC)c(OC)c1 (stereo not drawn),0,2.9%,0.5,.,5,.,6
O=C(/C=C/c1ccccc1)NC(=S)NNC(=O)c1ccco1,-26,2.2%,-4.7,?,-1,-6%,-4
O=C(C1=C(O)C(=O)N(CCCn2ccnc2)C1c1cccc(Br)c1)c1ccco1 (stereo not drawn),-15,-0.6%,-2.9,7,-6,20%,2
Cc1ccc(Cn2c(C3CCCN3c3nc(-c4ccc(F)cc4)cs3)nc3cc(C(F)(F)F)ccc32)cc1 (stereo not drawn),-11,?,-1.8,.,-5,.,-1
O=C(OC(C(=O)NCC1CCCO1)c1ccc(F)cc1)c1cccs1 (stereo not drawn),-10,-1.7%[38.3 µM],-2.6,-22,1,-3%,5
Cc1ccc(CN2CCN(CC(=O)N/N=C/c3ccc(C)o3)CC2)cc1,-20,-0.3%,-7.9,19,1,14%,.
CC(C)c1ccc(OCc2ccc(C(=O)N3CCCC3)o2)cc1,0,1.0%,1.2,14,-13,-16%,-22
COc1ccccc1C(CNC(=O)CCNS(=O)(=O)c1ccc(Br)cc1)N1CCCC1 (stereo not drawn),-10,1.5%,-5.5,.,0,.,0
Cc1cc(C(=O)NNC(=O)NC(C)C)no1,-2,2.1%,-4.5,13,-9,14%,4
CN(C)C(=O)CSc1nc(-c2ccccc2)nc2c1CCCC2,3,8.5%,-5.9,-15,-4,19%,2
COc1ccc(CNC(=O)COC(=O)c2cnccn2)cc1,-10,?,-2.5,0,10,17%,6
O=C(Nc1ccc(N2CCOCC2)cc1)c1cccnc1,2,-4.1%,-2.0,-5,4,12%,2
O=C(N/N=C/c1ccccc1F)c1cccc(NC(=O)c2ccccc2Cl)c1,-7,1.1%,5.6,?,-12,30%[activator],-15
COc1ccc(S(=O)(=O)N2CCC(C(=O)c3ccc4c(c3)OCCO4)CC2)cc1,-7,8.5%[38.3 µM],3.5,-4,-2,16%,-4
O=C(NCc1cccnc1)Nc1ccc(F)cc1F,-11,2.9%,-1.5,-17,4,-8%,-1
Cc1[nH]c(=O)c(C(=O)c2ccccc2O)cc1C(=O)O,-6,-3.6%,3.3,3,5,14%,4
CC1(C(=O)NS(=O)(=O)c2ccc(Cl)s2)CCN1C(=O)Cc1cc(F)ccc1F (stereo not drawn),-2,2.2%,-1.7,.,11,.,4
CCOc1ccc2c(c1)C(C)=CC(C)(C)N2C(=O)Nc1ccccc1F,5,0.3%,-5.7,22,-4,35µM*,3
Cc1cccc(-n2c(Cc3ccccc3)n[nH]c2=S)c1,-3,-3.2%,12,13,-4,7%,5
CN(CC(=O)Nc1ccc(Cl)c(C(F)(F)F)c1)C(=O)CCCc1nc2ccccc2c(=O)[nH]1,0,1.6%,-1.8,20,2,.,1
Cc1ccc(C)c(NC(=O)CCN2C(=O)C3CC=CCC3C2=O)c1 (stereo not drawn),-7,-0.2%,-5.4,0,-4,.,6
Cc1csc(NC(=O)CSc2ccc3nnc(CCNS(=O)(=O)c4ccccc4)n3n2)n1,-11,3.8%,-2.8,-2,5,11%,-9
CN=C(Nc1ccc(C(=O)OC)cc1)SC1CC(=O)N(c2ccccc2F)C1=O (stereo not drawn),-3,2.2%,0.0,-3,1,15%,4
CC(=O)N(Cc1cc2cc(C)ccc2[nH]c1=O)c1cccc(C)c1C,-2,2.6%,-3.3,4,7,3%,-6
O=C(COC(=O)c1ccccc1Nc1ccccc1)Nc1ccccc1,-8,6.1%,-0.5,-6,17,-5%,15
OC(COc1ccccc1)CN1CCOCC1 (stereo not drawn),-7,0.4%[38.3 µM],-1.2,-6,1,17%,8
Cc1cc(=O)[nH]c(SCC(=O)Nc2nnc(CC(C)C)s2)n1,-2,-1.5%,-0.1,11,8,12%,7
CCN(C/C=C/c1ccccc1OC)Cc1ccccc1,-26,6.1%,1.2,?,0,-13%,0
COc1ccc(C)cc1NC(=O)CCCN1C(=O)CN(C)C1=O,9,0.4%,-0.5,-5,5,.,.
CCC(C)NC(=O)COC(=O)c1ccc(Cl)cc1O (stereo not drawn),-32,0.1%,2.4,10,7,12%,.
CC1(C(=O)NC2CCCC2)CCC(=O)N1CCC1=CCCCC1 (stereo not drawn),10,-2.1%,-0.8,-13,7,18%,-10
COc1cc(OC)c(C(=O)NCc2ccc3c(c2)OCO3)cc1OC,5,3.2%,-1.4,10,-11,15%,-10
Cc1ccc(S(=O)(=O)N2CCN(CN3C(=O)CC4(CCCC4)C3=O)CC2)cc1,1,0.3%,-3.0,4,-7,.,11
COC(=O)[C@@]1(Cc2ccc(F)cc2)[C@H]2c3cc(C(=O)N4CCCC4)n(Cc4ccc(C)c(F)c4F)c3C[C@H]2CN1C(=O)c1ccccc1,.,2.0%,.,.,-20,-10%,-6
COc1cc(C(F)(F)F)nc2ccc(C#CCOC(=O)Nc3ccccc3)cc12,4,9.3%,-0.7,22,5,-7%,3
O=C(O)CCSc1ccc2ccccc2n1,14&5,-2.2%&-1.3%,-1.7&0.0,22&11,3&0,10%&8%,2&0
C#Cc1cccc(NC(=O)Cc2cccs2)c1,-7,1.4%,1.8,-2,2,11%,0
O=C(COc1ccc(F)cc1)N1c2ccccc2CCc2ccccc21,-3,-0.8%,-2.7,0,-1,-10%,.

# Three records drawn at random from the list so far:
SMILES,D2 potentiator,PINK1 modulator,D2 ag,TRPV1 potentiator,Six1-Eya2 inh,Sfp PPTase inh,CtBP-E1A inh
CN=C(Nc1ccc(C(=O)OC)cc1)SC1CC(=O)N(c2ccccc2F)C1=O (stereo not drawn),-3,2.2%,0.0,-3,1,15%,4
Cc1csc(NC(=O)CSc2ccc3nnc(CCNS(=O)(=O)c4ccccc4)n3n2)n1,-11,3.8%,-2.8,-2,5,11%,-9
CN(CC(=O)Nc1ccc(Cl)c(C(F)(F)F)c1)C(=O)CCCc1nc2ccccc2c(=O)[nH]1,0,1.6%,-1.8,20,2,.,1

# Next entries.
SMILES,D2 potentiator,PINK1 modulator,D2 ag,TRPV1 potentiator,Six1-Eya2 inh,Sfp PPTase inh,CtBP-E1A inh
CCOC(=O)c1ccc(NC(=O)NC2CC3CCC(C2)N3C(=S)NC)cc1 (stereo not drawn),-5,-0.2%,-5.4,1,1,17%,-1
COc1ccc(CN2CC(C(=O)N3CC(C)CC(C)C3)CC2=O)cc1 (stereo not drawn),0,-0.4%,6.7,4,2,15%,4
COc1ccc(C(=O)N2CCCC(c3nc(-c4cc(OC)c(OC)c(OC)c4)no3)C2)cc1 (stereo not drawn),-20,-2.8%[38.3 µM],0.6,-8,-2,-6%,-4
Cc1ccc(C(C#N)N2CCOCC2)cc1 (stereo not drawn),-7,6.9%[38.3 µM],2.4,13,4,12%,19
CCC(=O)NNc1nc2c(C)cc(C)cc2s1,-3,2.9%,7.6,7,-2,-6%,5
COc1cccc(C(=O)Nc2ccccc2C(=O)NC2CC2)c1,-8,0.8%,-7.8,4,15,12%,3
CCN(CC(=O)Nc1ccc(NC(C)=O)cc1)C(=O)CCN1C(=O)C2CC=CCC2C1=O (stereo not drawn),-2,-2.7%,-20,-1,1,.,1
COc1ccc(CCNC(=O)c2ccc3nc[nH]c3c2)cc1,-10,0.2%,4.9,?,0,20%,-3
CC1CCN(C2=C(NS(=O)(=O)c3ccc(Br)cc3)C(=O)c3ccccc3C2=O)CC1,-16,21%,1.6,-3,-84*,0%,.
COc1ccc(S(=O)(=O)N2C[C@H]3CON(C)[C@H]3C[C@H]2c2ccc(-c3cccc(F)c3)cc2)cc1,-8,2.7%,-4.5,.,-16,.,-9
CCOC(=O)C1CCCN(C(=O)c2cc3nc(-c4cccc(OC)c4)cc(C(F)(F)F)n3n2)C1 (stereo not drawn),-2,0.9%[38.3 µM],1.9,.,14,-11%,8
Cc1ncc(CO)c(/C=N/NC(=O)c2cccc(S(=O)(=O)N3CCCC3)c2)c1O,-10,-1.0%,-2.3,-1,-82*,.,0
CCCCCC(C)NC(=S)NC(=O)c1cc(S(=O)(=O)N2CCOCC2)ccc1C (stereo not drawn),-19,-0.1%,-1.7,-6,-3,2%,-6
CCc1ccc(S(=O)(=O)Nc2ccc(Cl)cn2)cc1,-31,-1.4%,-2.9,6,14,20%,.
O=C(/C=C/c1ccc(S(=O)(=O)N2CCOCC2)cc1)Nc1ccc(F)c(F)c1F,-4,11%,-3.1,.,-5,.,0
Fc1cccc(Cl)c1Cn1ncc2ccccc21,0,4.2%,-4.8,-6,10,6%,21
O=C(N/N=C/c1ccccc1Cl)c1[nH]c2ccc(Br)cc2c1-c1ccccc1,-11,?,-0.2,-2,-3,-11%,10
COc1ccc2c3c(cccc13)C(=O)N(O)C2=O,3,12%,-3.2,-1,?,-6%,?
O=C(c1ccc(-c2ccccc2)cc1)N1CCN(c2ccccc2F)CC1,-3,1.2%,-4.5,-13,0,-12%,-3
CN(C)c1ccc(C2N(c3ccc(Cl)cc3)C(=O)C3CCCN32)cc1 (stereo not drawn),-3,-0.3%,-0.6,.,5,2%,0
O=C(N/N=C/c1ccc(N2CCOCC2)s1)c1ccc(NS(=O)(=O)c2cccs2)cc1,-11,1.6%,-0.7,21,-5,?,.
Cc1cc(C)c2c(-n3cccc3)c(C(=O)NNS(=O)(=O)c3ccc(F)cc3)sc2n1,12,-0.4%,-3.3,5,-3,8%,1
CCOC(=O)C1CCCN(C(=O)C2CCN(S(=O)(=O)CC)CC2)C1 (stereo not drawn),7,.,3.9,6,6,15%,12
CS(=O)(=O)N1CCC(Oc2ccccc2C(=O)NCCCc2cccnc2)CC1,0,-0.7%,-0.9,-9,6,15%,9
COc1ccc(C(=O)Nc2ccc(N3CCCCC3)cc2)cc1Br,-29,13%,-2.7,-8,-6,-12%,2
COc1ccc(NS(=O)(=O)c2ccc(-n3nnc4ccccc43)c([N+](=O)[O-])c2)cc1,6,?,-3.0,-9,-2,-2%,-12
O=C(Nc1ccccc1)c1cc2ccccc2c(=O)s1,-27,0.3%,2.1,-7,0,-9%,1
